# HPGD inh: qHTS Assay for Inhibitors of HPGD (15-Hydroxyprostaglandin Dehydrogenase). hit rate 4.3% among 150,000. AID 894, 2007. purified HPGD, NADH fluorescence kinetic, PGE2 substrate. Potency, µM, for the others: at the highest dose activity change, negative = inhibition, hits mostly inhibitors; active = well fitted inhibition curve with a large enough effect (not every such curve was filed as active); inconclusive = small, poorly fitted or top-dose-only effect, or another doubt; inactive = no such curve, though single readings can be large or run the other way;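 note: top concentration of the series not given in the record; plate controls included wells without enzyme; inactives centre near -10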
# Target sequence (P15428 whole entry, looked up): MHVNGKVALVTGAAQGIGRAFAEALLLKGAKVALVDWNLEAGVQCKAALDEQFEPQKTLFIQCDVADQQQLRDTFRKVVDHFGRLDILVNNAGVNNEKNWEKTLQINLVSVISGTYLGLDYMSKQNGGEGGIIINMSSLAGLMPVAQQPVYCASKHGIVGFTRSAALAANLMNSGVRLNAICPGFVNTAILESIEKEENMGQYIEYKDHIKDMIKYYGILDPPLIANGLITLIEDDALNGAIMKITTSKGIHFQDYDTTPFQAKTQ
#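 NADH formation kinetics: reaction with 30 uM PGE2 and 1 mM NAD+ (final), 20 nM enzyme, Tris-HCl pH 8 with Tween 20, after 15 min compound preincubation at room temperature. Fluorescence change, last versus first of five reads.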
# The depositor's hits bear a star; ? = inconclusive. % is set by controls: 0 for no effect and ±100 for the full control effect; potency is the fitted concentration of half-maximal effect. The list is partial; rates above refer to the full screens.
# The first 3 compounds, to show the layout:
HPGD inh,molecule
-1.4%,CN(C)CCOc1ccccc1-c1ccccc1
?,Nc1nncn1C(=O)CCCOc1ccc(Cl)cc1Cl
-10.2%,Cc1ccc(NCC(=O)N/N=C/c2cccc(Oc3ccccc3)c2)cc1

# The whole of this part, from the start:
HPGD inh,molecule
-1.4%,CN(C)CCOc1ccccc1-c1ccccc1
?,Nc1nncn1C(=O)CCCOc1ccc(Cl)cc1Cl
-10.2%,Cc1ccc(NCC(=O)N/N=C/c2cccc(Oc3ccccc3)c2)cc1
5.62µM*,COc1cccc(-n2nnc3c(=O)n(Cc4ccccc4F)cnc32)c1
-5.4%,O=C(CCN1C(=O)C2C3C=CC(C3)C2C1=O)Nc1ccccc1F (stereo not given)
-1.4%,Cc1cc(Nc2nc(Cl)c(Cl)cc2Cl)n(-c2ccccc2)n1
-1.1%,COC(=O)N1CCC[C@@]2(CCN(c3ccncc3)C2)C1
-13.6%,O=C(CSc1nnc(Cn2nnc3ccccc32)o1)N(Cc1ccc(F)cc1)c1ccccc1
-17.0%,Cc1nn(-c2ccc(Cl)c(Cl)c2)c(=O)c2ccccc12
6.8%,C[C@@H]1CC[C@]2(O[C@@H](CCO)C[C@H](O)[C@H]2O)O1
-15.5%,CCN(CC)c1ccc(/C=N/N2CCN(Cc3ccccc3)CC2)c(O)c1
-0.1%,CCOC(=O)N1CCC(N2CC34C=CC(O3)C(C(=O)Nc3ccc(F)cc3)C4C2=O)CC1 (stereo not given)
-5.9%,CC12CCC(C(=O)NCCCN3CCOCC3)(OC1=O)C2(C)C (stereo not given)
3.4%,COc1cc2c(cc1OC)C(C)N(C(=O)CCN1C(=O)C3C4C=CC(C4)C3C1=O)CC2 (stereo not given)
-8.7%,CCN(CC)c1c([N+](=O)[O-])ncn1C
-16.5%,COc1ccccc1C1NC(=O)CS1 (stereo not given)
25.1µM*,C=C(C(=O)C(C)(C)O)C(O)c1ccc([N+](=O)[O-])cc1 (stereo not given)
5.6%,COc1ccccc1N1CCN(S(=O)(=O)c2ccccc2)CC1
?,O=C(CCNC(=O)Cn1ccc2ccccc2c1=O)NCCc1ccccc1Cl
?,COCCNc1nc(-n2nc(C)cc2C)nc2sc3c(c12)CCCC3
-5.4%,Clc1cc(Br)ccc1OCCCNCc1ccccc1
-19.5%,Clc1cc(Br)ccc1OCCOCCOc1cccc2cccnc12
0.2%,O=C(OC1Cn2c(=O)ccc(=O)n2C1)c1ccc([N+](=O)[O-])cc1
?,N#C/C(=C/c1ccc(OCc2ccccc2)cc1)C(=O)NC1CCCCC1
-7.1%,CN(CCO)c1ncnc2nc[nH]c12
-18.2%,COC(=O)c1ccc(-n2cc(-c3ccc(OC)cc3)[nH]c2=S)cc1
-14.3%,c1ccc2scnc2c1
-12.2%,CC(=O)c1ccc(NC2CC(O)C(O)CO2)cc1 (stereo not given)
-13.1%,CCc1c(C(=O)NNC(=S)NCc2ccccc2)csc1C
-14.2%,COC(=O)c1cnn(-c2nc3c(C)cccc3s2)c1C
1.1%,CC(=O)Nc1ccc(S(=O)(=O)N2CCN(c3ccc(C)c(Cl)c3)CC2)cc1
-14.9%,COC(=O)COc1ccc(S(=O)(=O)N2CCc3ccccc3C2)cc1C
-2.1%,CNC(=S)Nc1cccc2[nH]ncc12
-2.5%,CCOc1ccc(C(=O)Nc2cc(OC)ccc2OC)cc1
-12.5%,CCCN1C(=O)/C(=C/c2ccncc2)SC1=S
-10.1%,COc1ccc(N2CC(C(=O)NC3CC(C)(C)NC(C)(C)C3)CC2=O)cc1 (stereo not given)
-16.4%,CC(C(=O)N1c2ccccc2Sc2ccccc21)n1nnc(-c2cccs2)n1 (stereo not given)
-18.9%,COc1ccc(NC(=O)C2=C(C)C(=O)OC23CCC(C)CC3)cc1Cl (stereo not given)
?,CCOc1cc(-c2cc(-c3ccc(C)o3)nc(N)c2C#N)ccc1O
-27.3%,Fc1cc(F)c2nc(Nc3nc4cc5c(cc4s3)OCO5)sc2c1
-23.0%,Cc1ccc(NC(=O)c2cn(CCC#N)nc2-c2cccs2)c([N+](=O)[O-])c1
-14.0%,Cc1sc2nc(SCC(=O)N3CCN(CCO)CC3)n(-c3ccccc3)c(=O)c2c1C
-0.8%,COc1cc(C(=O)N(CCc2ccccc2)C2=CC3CCC(C2)N3C)cc(OC)c1OC (stereo not given)
22.4µM*,COC(=O)c1sc(Nc2ccccc2)nc1C
-1.8%,CCOc1ccccc1N1CC(C(=O)NCCc2ccc(S(N)(=O)=O)cc2)CC1=O (stereo not given)
-4.4%,Cn1c(Cn2c(=O)sc3ccccc32)nnc1SCC(=O)NC1CCCCC1
1.9%,Cn1nnc2cc(C(=O)N3CCN(c4ccccc4)CC3)ccc21
-9.9%,CCOc1cc2[nH]c(=S)n(CC3CCCO3)c(=O)c2cc1OCC (stereo not given)
-16.6%,COC(=O)c1c(NC(=O)CSc2nnnn2-c2ccccc2)sc2c1CCC(C(C)(C)C)C2 (stereo not given)
-2.0%,c1ccc(CNC2=NCCC2)nc1
-18.7%,CCN(Cc1ccccc1)S(=O)(=O)c1ccc(C(=O)N2CCN(c3nc4ccccc4s3)CC2)cc1
31.6µM*,CC(C)Cc1nnc(NC(=O)Cc2ccccc2[N+](=O)[O-])s1
2.1%,Cc1ccc2[nH]c(=O)c(CN(CCO)Cc3nnnn3CCc3ccccc3)cc2c1
-0.5%,CN1CCCC(C(=O)C(C#N)c2ccccc2)C1 (stereo not given)
-8.1%,C=CCn1c(=O)[nH]c2cc(C(=O)N3CCN(c4cccc(Cl)c4)CC3)ccc2c1=O
-24.7%,CNS(=O)(=O)c1cccc(C(=O)OCC(=O)c2cc(C)n(-c3ccc4c(c3)OCO4)c2C)c1

# Next compounds:
HPGD inh,molecule
-10.1%,Cc1ccc2cc(CNC(C)C)c(=O)[nH]c2c1
-2.4%,O=C(NCc1cccnc1)C(C(=O)c1ccc(F)cc1)n1ccccc1=O (stereo not given)
-24.7%,CC(Oc1ccc(Cl)cc1Cl)c1nc(-c2ccc(NC(=O)c3cccnc3)cc2)no1 (stereo not given)
14.1µM*,Cc1ccc2oc(-c3ccccc3)c(C(=O)O)c(=O)c2c1
-9.5%,CCC(=O)Nc1cccc(NC(=O)CN2CCN(c3ccccc3OC)CC2)c1
-4.2%,COc1ccc(NCC(=O)N/N=C2\CCCC(C)C2)cc1 (stereo not given)
0.1%,COc1ccc(CCN2C(=O)c3[nH]nc(-c4ccccc4O)c3C2c2ccccc2)cc1OC (stereo not given)
-0.2%,COC(=O)C1=C(C(=O)OC)[C@@H]2Nc3ccccc3[C@@]23C[C@@H](C(=O)OC)N(S(=O)(=O)c2c(C)noc2C)C3=N1
-15.3%,O=C(NCc1cccc(Cl)c1)c1cccnc1
?,O=S(=O)(Nc1ccc(-c2cn3ccsc3n2)cc1)c1ccc2c(c1)OCCO2
-15.2%,COCC(C)NCC(=O)NC(C)CCc1ccccc1 (stereo not given)
3.0%,COc1ccc2c(c1)CCc1c(C(=O)Nc3c(C)nn(Cc4ccccc4)c3C)noc1-2
-1.1%,CC(C)CC(=O)NC(Nc1ccc([N+](=O)[O-])cc1)C(Cl)(Cl)Cl (stereo not given)
?,CCOc1[nH]c(/N=C/c2ccco2)c(C#N)c1C#N
-17.7%,CCCCCC1CC(CC(=O)Nc2ccc([N+](=O)[O-])cc2)C(=O)O1 (stereo not given)
-6.5%,Cc1cc(C(=O)CN2C(=O)NC(C)(c3cccc(Br)c3)C2=O)c(C)n1Cc1ccco1 (stereo not given)
-9.9%,OC(c1ccccc1)(c1ccc(F)cc1)C(c1ccccc1)N1CCOCC1 (stereo not given)
8.91µM*,S=C(Nc1ccccn1)c1ccccn1
-7.1%,O=C1N(Cc2ccc(F)cc2Cl)c2ccccc2C12OCCCO2
?,CCOC(=O)c1cc(CC)sc1NC(=O)c1ccc2c(c1)OCCO2
-17.4%,Cc1c(/C=N\NC(=O)C2COc3ccc(C(C)(C)C)cc3O2)c2ccccc2n1C (stereo not given)
-3.8%,COc1ccc2cc(CN(C(=O)Nc3ccccc3)C3CCCC3)c(=O)[nH]c2c1
-3.1%,O=S(Cc1ccc(Br)cc1)Cc1nnc(SCc2ccc(Cl)cc2)n1-c1ccccc1 (stereo not given)
-0.4%,COC(=O)CSc1cc(C(F)(F)F)nc(-c2ccccn2)n1

# Some of these compounds in order of their number in HPGD inh, high to low.
Molecule	HPGD inh
COc1ccc2cc(CN(C(=O)Nc3ccccc3)C3CCCC3)c(=O)[nH]c2c1	-3.8%
O=C1N(Cc2ccc(F)cc2Cl)c2ccccc2C12OCCCO2	-7.1%
OC(c1ccccc1)(c1ccc(F)cc1)C(c1ccccc1)N1CCOCC1 (stereo not given)	-9.9%
Cc1c(/C=N\NC(=O)C2COc3ccc(C(C)(C)C)cc3O2)c2ccccc2n1C (stereo not given)	-17.4%

# (continued)
HPGD inh,molecule
-7.1%,Cc1ccc(SC(c2ccc(C)cc2)C(Cn2cncn2)C(=O)c2ccccc2)cc1 (stereo not given)
-3.9%,Cc1cccc(C2NS(=O)(=O)N=C2N)c1 (stereo not given)
-0.2%,NC(=O)NC(CC(=O)OCC(=O)NC(=O)NCc1ccco1)c1ccc(Cl)cc1 (stereo not given)
-7.0%,CC12CCC(C(=O)N(c3ccccc3Cl)C1=O)C2(C)C (stereo not given)
-10.6%,COc1ccccc1NC(=O)Oc1ccc(NC(=O)c2ccco2)cc1
?,CCOc1ccccc1C1NC(=O)NC(C)=C1C(=O)OC1CCCC1C (stereo not given)
-10.4%,O=C(O)C1=C(C(=O)N2CCN(C(=O)c3ccco3)CC2)CCCC1
?,Cc1cc(C)nc(Nc2nc(C)c3cc4c(cc3n2)OCO4)n1

# Reprinted at random: 5 compounds from above.
HPGD inh,molecule
31.6µM*,CC(C)Cc1nnc(NC(=O)Cc2ccccc2[N+](=O)[O-])s1
5.62µM*,COc1cccc(-n2nnc3c(=O)n(Cc4ccccc4F)cnc32)c1
-1.4%,Cc1cc(Nc2nc(Cl)c(Cl)cc2Cl)n(-c2ccccc2)n1
?,O=C(CCNC(=O)Cn1ccc2ccccc2c1=O)NCCc1ccccc1Cl
6.8%,C[C@@H]1CC[C@]2(O[C@@H](CCO)C[C@H](O)[C@H]2O)O1

# Later entries:
HPGD inh,molecule
?,c1ccc(-n2nc3c(ccc4cnnc43)[nH]2)cc1
-10.4%,CCN(CCCNC(=O)Cn1cc2c(n1)CCCC2)c1cccc(C)c1
-5.7%,Cc1cc(OCCOCCN(C)CCO)cc(C)c1Cl
-7.9%,CCOC(=O)c1c(-n2cccc2)sc2c1CCCC2=O
-27.0%,O=C(Nc1ccc(O)c(C(=O)O)c1)c1ccc2c(c1)C(=O)N(CC1CCCO1)C2=O (stereo not given)
-0.1%,Cc1sc(NC(=O)CSc2nnc(COc3ccc(Cl)cc3)n2C)c(C#N)c1C
-5.8%,CCOC(=O)c1nnn(-c2nonc2N)c1CN1CCCCCC1
?,CCOC(=O)c1cccc(-n2c(-c3ccc(OC)cc3)nc3nc4ccccc4nc32)c1
-10.0%,Cc1cc(C)c(C#N)c(SCc2[nH]nc3c2C(c2ccc(F)cc2)C(C#N)=C(N)O3)n1 (stereo not given)
-0.9%,COC(=O)c1ccccc1NC(=O)Cn1c(=O)oc2ccc(Cl)cc21
-23.6%,Cc1ccc(-n2ncc3c(=O)n(CC#N)cnc32)cc1C
-12.8%,COCCn1nnnc1C(c1ccc(OC)cc1)N1CCC(C)CC1 (stereo not given)
-3.5%,Cc1csc(SCC(=O)NCCc2ccc(Cl)cc2)n1
-10.5%,O=C1NCC2=C1C(c1ccccc1)Nc1ccccc1N2 (stereo not given)
-14.6%,O=C(Nc1ncc(Cc2ccccc2Cl)s1)c1ccc([N+](=O)[O-])cc1
-4.1%,O=C(Nn1c(C2CCCCC2)nc2ccccc2c1=O)c1ccc([N+](=O)[O-])cc1Cl
-13.6%,O=C(NN1C(=O)C2C3C=CC(C4CC34)C2C1=O)c1cccc(Cl)c1 (stereo not given)
-14.1%,CCNc1nc(NC(C)C)nc(SCCOC(=O)c2ccccc2)n1
-2.7%,CCOC(=O)c1cnc2nc(C)[nH]n2c1=O
-24.4%,O=C1C(=Cc2ccco2)C(=O)c2ccccc21
-12.4%,CCn1c(SCc2ccccc2)nnc1C1CCN(S(=O)(=O)c2ccc(OC)cc2)CC1
3.6%,COc1ccc(N(CC(=O)N2CCN(Cc3ccc4c(c3)OCO4)CC2)S(C)(=O)=O)cc1OC
-13.7%,CC(C)Oc1ccc(C(CC(=O)N(C)CCC#N)c2ccc(F)cc2)cc1 (stereo not given)
-10.0%,CCOC(=O)c1ccc(NC(=O)N2CCc3ccccc32)cc1
-6.1%,C=CCn1sc(N)c(C(=O)OCC)c1=S
-1.8%,COC(=O)N1[C@H]2CC[C@@]3(C)C=C(C)O[C@]1(C)C3c1ccccc12
?,Nc1ccc(C(=O)N/N=C2\CCCc3c2[nH]c2ccccc32)cc1
11.2µM*,O=C(N[C@@H](Cc1ccccc1)C(=O)CCl)OCc1ccccc1
-22.9%,O=C(CN1C(=O)C2CC=CCC2C1=O)Nc1nnc(SCc2ccc(Cl)cc2)s1 (stereo not given)
-2.1%,CCOC(=O)c1ccc(Oc2nc(N(C)C)nc(N(C)C)n2)cc1
-10.5%,CCN(CC)c1ccc(C2CC(=O)Nc3cc(OC)c(OC)cc32)cc1 (stereo not given)
-17.8%,Cc1csc(SCC(=O)Nc2ccc(S(=O)(=O)N3CCCC3)cc2)n1
-15.9%,COc1ccc2nc(N3CCCCC3)c(C#N)cc2c1
-10.3%,Cc1ccc(NC(=O)COC(=O)CN2C(=O)COc3ccccc32)cc1
-13.8%,Cc1ccc(Nc2nnc(SCC(=O)Nc3cccc(S(=O)(=O)NC4=NCCCCC4)c3)s2)c(C)c1
0.5%,Fc1ccccc1/C=N/n1cnnc1

# Bioassay records: PubChem BioAssay, National Center for Advancing Translational Sciences (NCATS)
